Bead autofluor = counter-screen for toxin protease inhibitors: compound fluorescence. compound autofluorescence counterscreen, microsphere flow cytometry; hits give high values. 360,000 compounds, 3.1% hits. fluorescence intensity (test concentration not listed);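 active = at least 3 SD above the mean of all compounds, about 16000 in these data; inconclusive = too few beads counted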;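 also: 100 nL of 1 mM stock went into each well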
Mtb hypoxia rep = reduces hypoxia-regulated biosensor signal in M. tuberculosis; M. tuberculosis hypoxia-regulated fluorescent reporter, fluorescence; fluorescence inhibition, % (no concentration beside the values); 300,000 compounds, 0.1% hits; AID 1159583;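 active = 35 to 45% if threefold the growth effect, above 45% if 1.5-fold the growth effect; inactive = the rest, general growth blockers included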;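 also: wells of about 50 µL received 100 nL stock; 0% = vehicle wells and 100% = reference inhibitor wells; whole bacteria with a GFP reporter of the hypoxia response; strong numbers were not always called active; many hits fall short of the cut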
RN4220 kill = S. aureus RN4220 growth inhibition | OD600, 16 h | inhibition, % (test concentration not listed) | 330,000 compounds, 0.33% hits;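 active = z-score of -3 or lower and OD600 up to 0.18 on both plates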;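 also: plate controls were untreated cells for no effect and reference antibiotic for full effect; stock transfer was 100 nL into about 80 µL; one replicate is shown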
Sa ugtP lethal = kills S. aureus RN4220 lacking UgtP; S. aureus RN4220 ugtP deletion, OD600 growth, 16 h; some inactives read as strong as hits; 330,000 compounds, 0.54% hits; growth inhibition, % (no concentration beside the values);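 active = z-score under -3 and OD600 up to 0.15 on both plates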;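 also: plate controls were untreated wells for no effect and antibiotic for full effect; wells of about 80 µL received 100 nL stock; the first replicate is given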
BJeLR viability = kills HRASV12-expressing BJeLR cells; BJeLR (HRASV12) viability, CellTiter-Glo ATP luminescence, 48 h; reference of the scale not given here; 300,000 compounds, 0.17% hits; inhibition, % (concentration not given with the values);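 active = replicate mean above 50%; inconclusive = above 50% but judged a plate artefact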;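 also: 50 nL library stock added to about 25 µL; numbers are from one replicate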
PrP UTR inh = inhibition of PrP 5' UTR reporter expression; inhibition, % (test concentration not listed); 340,000 compounds, 0.35% hits; cell-based PrP 5' UTR mRNA reporter, plate reader;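 active = every replicate at 50% or more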;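 also: 0 = median of the neutral control wells; tested in H4 reporter cells; numbers are from one replicate; inactives centre near -14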
Mtb hypoxia rep growth = second read-out of Mtb hypoxia rep, no call of its own (marks repeat the call); growth inhibition, %; measured here: M. tuberculosis growth (absorbance);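 0% = vehicle and 100% = reference antibiotic; read after six days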
Numbers without * were called inactive; ? = inconclusive; / = no result given; & = joins results of further samples.

SMILES | Bead autofluor | Mtb hypoxia rep | Mtb hypoxia rep growth | RN4220 kill | Sa ugtP lethal | BJeLR viability | PrP UTR inh
COc1ccc(N2C(=O)N3C(c4ccc(Cl)cc4)C4C(=O)N(C5CCCCC5)C(=O)C4[C@]3(Cc3ccc(Cl)cc3)C2=O)cc1 (stereo partly specified) | / | -2 | -2 | 1.4 | 0 | / | /
COC(=O)c1ccc(NC(=O)CCc2nnc3ccc(NCc4ccco4)nn23)cc1 | 4633 | 3 | 0 | 0.3 | -5 | -8 | -12
CCOc1ccccc1OCCC(=O)NNC(=O)Cn1nc(C)cc1C | ? | -4 | -3 | 3.9 | 5 | 4 | -28
CCN(CC(=O)Nc1c(F)cccc1F)C(=O)c1ccc2ccccc2n1 | ? | 4 | -2 | 4.9 | 16 | -6 | -10
COc1cc(C2NC(=O)C(C#N)=C(S)N2c2ccccc2)ccc1OC(C)C (stereo unspecified) | 3422 | 1 | 9 | 2.7 | 3 | -4 | 3
CS(=O)(=O)Nc1ccc(-c2cc(C=C3SC(N)=NC3=O)c[nH]c2=O)cc1 | / | -3 | -1 | -3.3 | -4 | / | /
OC1(c2cccc(C(F)(F)F)c2)CCN(c2ncnc3c2[nH]c2ccccc23)CC1 | 3300 | -1 | 4 | 1.0 | -17 | -11 | -26
CCOC(=O)C[C@H]1c2cc(F)ccc2S(=O)(=O)N1Cc1ccc(OC)cc1 | 3847 | / | / | / | / | 4 | -11
c1ccc(C[C@H]2CNCCN2CCC23CC4CC(CC(C4)C2)C3)cc1 | 3213 | / | / | / | / | 10 | -17
COC(=O)C1=C(C)NC(c2c(O)ccc3ccccc23)C(C(=O)OC)=C1C (stereo unspecified) | 2006 | 2 | 7 | 8.2 | 0 | 6 | -4
Cc1[nH]ncc1-c1ccccc1Cl | 4277 | 13 | -3 | 6.3 | 4 | -6 | -14
COC(=O)c1cncn1Cc1ccccc1 | 3943 | 10 | 5 | 4.8 | 2 | / | -16
CCOC(=O)N1CCN(C(=O)c2ccc(N3CCCC3=O)cc2)CC1 | 2921 | / | / | -0.3 | 3 | 5 | -30
Cc1ccc(-c2ccc(=O)n(CC(=O)NCCN3C(C)CCCC3C)n2)cc1 (stereo unspecified) | 11325 | -6 | -3 | 1.9 | 9 | 1 | -11
COc1ccc(CCNC(=O)c2oc3ccc(S(=O)(=O)N4CCOCC4)cc3c2C)cc1OC | 9615 | 6 | 7 | 3.4 | 1 | -14 | -7
O=C(CSC1=NCCS1)N1CCCC1 | 3521 | 19 | 13 | -11 | -4 | 1 | -17
Cc1ccc2nc(SCC(=O)NN=Cc3ccc(C(=O)O)cc3)cc(C)c2c1 | / | 2 | -1 | 3.3 | 1 | / | /
CC(C)N(Cc1ccccc1)C(=O)COC(=O)c1cnc(Cl)c(Cl)c1 | 3794 | 11 | 8 | 4.7 | -2 | / | -11
CCN(CC)C(=O)CN1CCC(c2nc3cc(C)c(C)cc3[nH]2)CC1 | 3402 | 10 | 1 | 6.1 | 14 | -11 | -1
Cc1ccccc1-n1nc(-c2ccc(N)cc2)cc1N | 2510 | / | / | -2.9 | 0 | -1 | -24
CCOC(=O)N1CCN(C(=O)c2ccc(N3CC4CC(C3)c3cccc(=O)n3C4)c(NC(=O)c3ccc(F)cc3)c2)CC1 (stereo unspecified) | 5634 | 5 | 3 | 4.0 | 12 | 8 | -14
Cc1ccc(S(=O)(=O)CCC(=O)Nc2sccc2C(N)=O)cc1 | ? | 1 | 10 | -0.3 | -3 | / | -1
O=C(CSc1ccc(Cl)cc1)Nc1nnc(-c2ccco2)o1 | 4566 | -2 | 9 | -4.0 | -8 | -1 | -27
COc1ccccc1CNC(=O)CCCNS(=O)(=O)c1cccc2nsnc12 | 4044 | 4 | 6 | -2.0 | -1 | 0 | -17
CCOC(=O)N1CCC(n2c(SCC(=O)c3ccccc3)nc3ccsc3c2=O)CC1 | 7969 | 5 | 0 | 4.7 | 8 | 4 | 2
Cc1ccc2nc(N3CCN(CCO)CC3)nc(-c3ccccc3)c2c1 | 3727 | 7 | 4 | 1.6 | 22 | -5 | -9
O=C(COC(=O)c1cc[n+]([O-])cc1)NCC12CC3CC(CC(C3)C1)C2 | 5745 | / | / | 3.9 | -7 | -3 | -3
CC(=O)OC12CC3CC(C1)C(=NO)C(C3)C2 | 2470 | / | / | 1.4 | -5 | -4 | -22
O=[N+]([O-])c1ccc(NCCCN2CCOCC2)nc1 | / | 10 | 8 | 6.9 | 6 | 3 | -12
CCCC(C)C1(CC)C(=O)NC(=Nc2ccc(OC)cc2)NC1=O (stereo unspecified) | 2067 | 2 | 5 | -1.0 | 0 | -1 | -4
OCCCNc1nc(-c2ccc(Cl)cc2)nnc1-c1ccccc1 | 2377 | 12 | 0 | 3.1 | 6 | -10 | -16
O=C1c2ccc(Oc3ccc([N+](=O)[O-])cc3)cc2C(=O)N1CCCO | 3132 | -1 | 5 | 3.1 | 2 | 2 | -11
c1ccc2c(NC3C4CC5CC(C4)CC3C5)nc(N3CCOCC3)nc2c1 (stereo unspecified) | 4639 | 15 | 10 | 3.0 | -23 | 1 | -24
CC(=O)c1ccc(NC(=O)CSc2nccn2CCc2ccccc2)cc1 | 4655 | 7 | 18 | 4.0 | -2 | 6 | -44
Cc1cccc(-n2cnc(C(=O)N3CCN(C)CC3)c2)n1 | 5546 | 6 | 12 | 2.1 | 5 | -5 | -29
O=C(Nc1ccc2c(c1)OCO2)Nc1ccc(F)cc1F | 5163 | -2 | 0 | 0.5 | 0 | 9 | -64
CN(CCCC(=O)Nc1ccccc1)S(=O)(=O)c1ccc(Cl)cc1 | 4275 | -1 | -2 | 2.9 | 9 | -2 | -18
Cc1cccc(C(=O)N2CC(=O)Nc3ccc(F)cc3C2c2ccc(F)cc2)c1 (stereo unspecified) | 3307 | -6 | 0 | 0.4 | 7 | 13 | -12
c1ccc(CCNc2ncnc3c2nnn3Cc2ccccc2)cc1 | 11029 | 9 | 8 | -2.0 | 0 | 5 | /
CCCc1nc2ccc(N)cc2c(=O)n1Cc1ccccc1Cl | 4029 | 11 | -7 | 2.3 | 2 | -1 | -26
CC1CCCC(C)N1C(=O)COC(=O)C1CCN(S(=O)(=O)c2c(Cl)cccc2Cl)CC1 (stereo unspecified) | 5919 | 2 | -5 | 1.7 | 9 | 3 | -23
O=C1NC(=O)C(c2ccccc2)N1 (stereo unspecified) | 3501 | 6 | 7 | 3.6 | 2 | / | -20
COc1ccccc1/C=C/C(=O)OCC(=O)Nc1c(C)nn(-c2ccccc2)c1C | 3611 | 8 | -1 | 3.6 | 3 | / | -14
CC(NS(=O)(=O)c1ccc(Br)cc1)C(=O)NCCc1ccccc1 (stereo unspecified) | 7181 | 8 | 2 | 4.4 | 0 | 10 | -19
COc1ccc(N2C(=O)/C(=C3/C=CC=CN3C)SC2=S)cc1 | 1958 | 19 | 4 | 3.8 | -2 | -5 | -28
CC(Cc1c[nH]c2ccccc12)NC(=O)OCCCl (stereo unspecified) | 4183 | 8 | -6 | -0.2 | 1 | -3 | -24
N/C(Cc1ccc([N+](=O)[O-])cc1)=N\OC(=O)c1ccc([N+](=O)[O-])cc1 | 2245 | / | / | / | / | -6 | -67
Cc1nn(C)cc1S(=O)(=O)N1CCN(c2ccc(F)cc2)CC1 | 5724 | -4 | -10 | 5.7 | 7 | -9 | -3
COc1ccccc1C(=O)COC(=O)c1cc([N+](=O)[O-])ccc1N1CCOCC1 | 6149 | 11 | 3 | 4.2 | 9 | 7 | -5
CC(C)Oc1cccc(C(=O)C2CCCN(Cc3ccon3)C2)c1 (stereo unspecified) | 3928 | 12 | -3 | 5.0 | 5 | -6 | -8
CCC(=NCc1cc(OC)cc(OC)c1)c1c(O)n(C2CCCCC2)c(=O)[nH]c1=O | 3737 | 9 | -2 | -0.5 | -24 | 1 | -12
O=C(OCC(=O)N1CCc2ccccc21)c1ccc[nH]c1=O | 3943 | -7 | 0 | 2.9 | 3 | 0 | -23
COC(=O)CN1C(=O)C2(OCCCO2)c2ccccc21 | 11925 | -2 | -1 | 1.3 | 4 | 2 | -13
COc1ccc(OC)c(/C=C/C(=O)c2ccc3c(c2)OCCO3)c1 | 4043 | 6 | 6 | 10 | 9 | -9 | -26
CCCC(=O)O[C@@H]1C[C@@H](C)N(C(=O)c2ccccc2)c2ccc(C)cc21 | 2430 | / | / | 1.7 | 12 | -9 | -22
C[C@]12CC[C@H](O)CC1=CCC1C2CC[C@@]2(C)C1CCC21OCCO1 (stereo partly specified) | 3727 | 12 | 9 | 6.5 | 27 | / | -18
COC(=O)c1cc(C(=O)Nn2cnnc2)cc([N+](=O)[O-])c1 | 3375 | -1 | -6 | 4.3 | 5 | 3 | -7
C#Cc1cccc(C(=O)N2CCCC(Nc3cccc(F)c3)C2)c1 (stereo unspecified) | 5968 | 1 | 0 | 1.1 | -2 | 2 | -37
Cc1ccc(S(=O)(=O)Nc2ncnc3ccccc23)cc1 | 5976 | 1 | -1 | 3.0 | -4 | -10 | -24
COc1ccc(Cl)c2c1[nH]c1nc(SCc3cccnc3)nnc12 | 4085 | / | / | / | / | -6 | -15

6 records drawn at random from those above, as already listed:
SMILES | Bead autofluor | Mtb hypoxia rep | Mtb hypoxia rep growth | RN4220 kill | Sa ugtP lethal | BJeLR viability | PrP UTR inh
CCC(=NCc1cc(OC)cc(OC)c1)c1c(O)n(C2CCCCC2)c(=O)[nH]c1=O | 3737 | 9 | -2 | -0.5 | -24 | 1 | -12
Cc1ccc(S(=O)(=O)Nc2ncnc3ccccc23)cc1 | 5976 | 1 | -1 | 3.0 | -4 | -10 | -24
COc1ccccc1C(=O)COC(=O)c1cc([N+](=O)[O-])ccc1N1CCOCC1 | 6149 | 11 | 3 | 4.2 | 9 | 7 | -5
CCCC(=O)O[C@@H]1C[C@@H](C)N(C(=O)c2ccccc2)c2ccc(C)cc21 | 2430 | / | / | 1.7 | 12 | -9 | -22
COC(=O)c1cc(C(=O)Nn2cnnc2)cc([N+](=O)[O-])c1 | 3375 | -1 | -6 | 4.3 | 5 | 3 | -7
O=C(OCC(=O)N1CCc2ccccc21)c1ccc[nH]c1=O | 3943 | -7 | 0 | 2.9 | 3 | 0 | -23

Other structures
SMILES | Bead autofluor | Mtb hypoxia rep | Mtb hypoxia rep growth | RN4220 kill | Sa ugtP lethal | BJeLR viability | PrP UTR inh
CCS(=O)(=O)N1CCC(NC(=O)c2ccco2)CC1 | 10586 | -3 | 3 | 4.0 | 7 | 2 | -13
COc1ccc(OCC(=O)Nc2sc3c(c2C(=O)NCC2CCCO2)CCC3)cc1 (stereo unspecified) | 10476 | 4 | -1 | 4.5 | 1 | -10 | -9
N=c1n(CCCOc2ccc(F)cc2)c2ccccc2n1CC(N)=O | 4678 | 9 | 8 | 0.2 | 0 | -5 | -19
COc1ccc(S(=O)(=O)CCC(=O)Nc2cccc(OC)c2)cc1 | / | 13 | -1 | 3.9 | 4 | -7 | /
CCC(C)CNC(=O)c1cccc(OC2CCN(CC(C)(C)C)CC2)c1 (stereo unspecified) | 4121 | / | / | / | / | -13 | -12
CCC1CCC(C(=O)NC(C(=O)NCCc2ccc(S(N)(=O)=O)cc2)C(C)C)CC1 (stereo unspecified) | 3118 | -6 | 1 | 2.0 | -1 | 16 | -6
CCc1ccc(NC(=O)Cn2nc(C)n3cccc3c2=O)cc1 | 5679 | 0 | 4 | 1.1 | 7 | 2 | 2
CC1C=C(C(=O)NCc2ccccc2)OC(OCc2ccc(CO)cc2)C1 (stereo unspecified) | / | 11&5 | 2&3 | 0.8&1.0 | -4&-11 | / | /
Cc1ncc[nH]1 | 6553 | 10 | 5 | 3.3 | 2 | / | -1
CCCCn1cnc2c(SCCc3ccccc3)nc(N)nc21 | 3604 | 8 | 4 | 5.5 | 6 | / | -42
Cc1nnc(N2CCCC(C(=O)NCc3cccc(F)c3)C2)c2nn(-c3ccccc3)c(C)c12 (stereo unspecified) | 16533* | 13 | 1 | -4.5 | -2 | -14 | -10
Cc1ccc(-c2cc(C(=O)Nc3c(C)n(C)n(-c4ccccc4)c3=O)[nH]n2)c(O)c1 | 22384* | 5 | 9 | 0.7 | -2 | -4 | -1
O=S(=O)(c1ccc(Cl)cc1)n1cnc2ccccc21 | 4307 | -5 | 8 | 0.7 | 1 | -9 | -14
Oc1c(CN2CCN(c3ccccc3)CC2)cc(Br)c2cccnc12 | 2998 | -7 | 2 | 19 | -2 | 77* | 31
